UCH37 DUB inh – inhibitors of human UCH37 deubiquitinase, primary screen, biochemical, Ub-AMC cleavage, fluorescence; Ubiquitin carboxyl-terminal hydrolase isozyme L5 (Homo sapiens), Q9Y5K5; purified proteasome/UCH37; inhibition, % (no concentration beside the values); 330,000 compounds, 0.33% hits; AID 588478, 2011;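 active means mean of two replicates above 20%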;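 further: 0% = compound-free wells with enzyme and 100% = wells lacking proteasome; stock transfer was 100 nL into about 20 µL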
Target sequence (Q9Y5K5 whole entry, looked up): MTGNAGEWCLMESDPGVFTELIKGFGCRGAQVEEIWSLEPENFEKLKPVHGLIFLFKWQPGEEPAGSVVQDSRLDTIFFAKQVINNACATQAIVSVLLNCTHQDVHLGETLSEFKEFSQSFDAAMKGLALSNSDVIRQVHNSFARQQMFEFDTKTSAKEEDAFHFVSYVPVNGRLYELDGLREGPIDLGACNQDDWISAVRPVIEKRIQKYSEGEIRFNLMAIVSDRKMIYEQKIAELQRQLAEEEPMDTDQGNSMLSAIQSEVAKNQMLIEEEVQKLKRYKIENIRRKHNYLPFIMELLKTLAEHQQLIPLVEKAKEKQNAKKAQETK
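Material: Human UCH37 enzyme supplied as purified proteasome complex | Schedule: 30 min preincubation with enzyme, 25 min cleavage at room temperature | Detection: AMC fluorescence 355/460 nm | Measure: % inhibition of Ub-AMC cleavage fluorescence | Controls: Wells without proteasome as full block, compound-free enzyme plus substrate as uninhibited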
Beta apoptosis – inhibitors of cytokine-induced beta cell apoptosis, primary screen, luminescence | INS-1E cytokine-induced death, ATP luminescence, 48 h; percent of positive-control rescue, neutral wells zero | protection from apoptosis, % (concentration not given with the values) | 300,000 compounds, 0.8% hits;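 active means all replicates at 75% or more, or half of them and the mean; inconclusive means half reach 75% but not the mean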;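 further: 0% = cytokine-treated negative control wells and 100% = positive control rescue; higher means more ATP so stronger rescue from cytokine killing; wells of about 40 µL received 100 nL stock; the first replicate is given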
Beta2AR agonist – beta2AR agonists driving receptor internalization, primary screen, cell-based, FAP fluorogen, flow cytometry; Am2.2-beta2AR cells; reference of the scale not given here; response, % (no concentration beside the values); 340,000 compounds, 0.43% hits;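 active means response above a set limit, near 3 SD of response in nonfluorescent compounds, cut at about 42% in these data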;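 further: stock transfer was 100 nL into about 11 µL; a reference agonist was the positive control; negative values mostly stem from fluorescent compounds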
Target sequence (P07550 whole entry, looked up): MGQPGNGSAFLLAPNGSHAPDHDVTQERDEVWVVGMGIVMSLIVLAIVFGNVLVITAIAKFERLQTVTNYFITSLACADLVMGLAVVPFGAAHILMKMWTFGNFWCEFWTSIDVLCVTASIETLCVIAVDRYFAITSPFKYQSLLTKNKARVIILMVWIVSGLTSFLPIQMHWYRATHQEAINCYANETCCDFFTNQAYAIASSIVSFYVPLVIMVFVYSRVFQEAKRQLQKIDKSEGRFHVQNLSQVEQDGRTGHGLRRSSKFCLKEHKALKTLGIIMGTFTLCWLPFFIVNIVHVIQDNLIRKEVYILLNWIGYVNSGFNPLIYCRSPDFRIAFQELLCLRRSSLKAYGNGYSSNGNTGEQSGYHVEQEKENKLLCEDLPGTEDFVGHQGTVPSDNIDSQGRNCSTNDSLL
Bfl-1 A1 inh – caspase 3/7 activation in MEF A1-2A-BIM cells, primary screen, A1 inhibitor project, cell-based, luminescence, HTS; Caspase-Glo 3/7 luminescence, 3 h; percent of clofoctol response, vehicle zero; caspase activation, % (test concentration not listed); 330,000 compounds, 0.066% hits;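 active means over half of replicate activation scores above 10%, or exactly half above 10 with the replicate mean above 10; inconclusive means replicate mean below 10 yet half the replicates above 10; inactive means over half of replicates below 10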;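 further: wells of about 30 µL received 50 nL stock; many hits fall short of the cut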
RanGTP-Impb inh – inhibitors of RanGTP-importin-beta interaction, primary screen, biochemical, FRET, CFP-Ran, YFP-importin-beta, homogeneous; cell-free CFP-Ran/YFP-importin-beta FRET ratio; 300,000 compounds, 1.1% hits; inhibition, % (test concentration not listed);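 active means most replicates above 15%; inconclusive means exactly half above 15%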;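 further: 0% = DMSO wells and 100% = Ran loaded with GDP instead of GTP; wells of about 40 µL received 100 nL stock; the first replicate is given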
LANA-H2A inh – blockers of LANA interaction with H2A/H2B – biochemical, FP readout, HTS, primary screen; 320,000 compounds, 0.6% hits; AID 2629, 2010; cell-free LANA-H2A/H2B peptide, fluorescence polarization; Protein LANA1 (Human herpesvirus 8 type P (isolate GK18)), Q9QR71; inhibition, % (test concentration not listed); in the data active means inhibition mostly above about 10%, no sharp cut-off; inactive means mostly below about 6.7%;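 further: stock transfer was 7.5 nL into about 10 µL; 0% = median of vehicle wells and 100% = median of positive control wells; one replicate is shown; the record names a cut of 25% in any replicate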
Calb FLC – C. albicans growth inhibition with fluconazole, primary screen, CaCi-2 strain, Alamar Blue fluorescence | C. albicans CaCi-2 (fluconazole-resistant clinical isolate) + fluconazole, 48 h | AID 1979, 2009 | 300,000 compounds, 0.57% hits | growth inhibition, % (no concentration beside the values);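 active means most replicates above 75%; inconclusive means exactly half above 75%; inactive means most below 75%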;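 further: all wells also contain fluconazole at 8 µg/ml as a sub-toxic cotreatment; 0% = median of DMSO wells and 100% = median of geldanamycin control wells; wells of about 8 µL received 7.5 nL stock; the first replicate is given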
T cruzi repl – inhibitors of intracellular T. cruzi growth, primary screen, luminescence, NIH3T3 host cells; inhibition, % (concentration not given with the values); 300,000 compounds, 1.4% hits; T. cruzi beta-gal in NIH3T3, 90 h;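 active means mean inhibition across valid replicates above about 55%, limit read from the data; inconclusive means mean below that limit but half or more replicates reach it; inactive means mean below it, under half of replicates reach it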;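 further: signal also drops with host cell toxicity which is not excluded here; 0% = plate median of DMSO wells and 100% = zero luminescence signal; higher percent means less beta-gal luminescence so fewer parasites; stock transfer was 50 nL into about 50 µL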
* = called active by the depositor; ? = inconclusive; / = not tested or not shown.

Start of the data: the first two compounds, to show the layout:
[1] CCc1ccc(-n2c(=S)sc3c(=O)n(-c4ccccc4)c(SCC(=O)O)nc32)cc1
[2] CN1CCCN(Cc2ccc(Cl)cc2Cl)CC1
Compound	1	2
UCH37 DUB inh	12.2	4.1
Beta apoptosis	/	-2.8
Beta2AR agonist	-3.5	10.6
Bfl-1 A1 inh	0.8	-1.3
RanGTP-Impb inh	2.3	-3.2
LANA-H2A inh	4.6	-7.0
Calb FLC	-8.5	-27.0
T cruzi repl	-4.2	40.0

The listing, repeating the preview:
[1] CCc1ccc(-n2c(=S)sc3c(=O)n(-c4ccccc4)c(SCC(=O)O)nc32)cc1
[2] CN1CCCN(Cc2ccc(Cl)cc2Cl)CC1
[3] CCOC(=O)c1nnn(CC(=O)N2N=C(c3ccc(Cl)cc3)CC2c2ccccc2)c1C(=O)OCC (stereo unspecified)
[4] COc1ccc(CN2CCC(CO)(Cc3cccc(C(F)(F)F)c3)CC2)cc1Cn1cccn1
[5] O=C(CSc1nc2ccccc2nc1N1CCOCC1)Nc1ccccc1F
[6] COCCCN1C(=O)/C(=C\c2cccs2)C(C(=O)OC)=C1C
Compound	1	2	3	4	5	6
UCH37 DUB inh	12.2	4.1	0.7	2.2	0.2	6.1
Beta apoptosis	/	-2.8	18.8	-5.9	3.7	-4.3
Beta2AR agonist	-3.5	10.6	0.1	10.4	-8.6	2.9
Bfl-1 A1 inh	0.8	-1.3	0.0	0.9	0.0	-0.3
RanGTP-Impb inh	2.3	-3.2	-1.2	8.2	1.9	-1.3
LANA-H2A inh	4.6	-7.0	1.3	1.2	-2.1	-4.5
Calb FLC	-8.5	-27.0	-6.8	2.0	-0.9	-3.5
T cruzi repl	-4.2	40.0	22.7	41.6	4.0	5.7

[7] CCOC(=O)c1c(NC(=O)c2ccc(Cl)cc2)csc1C
[8] COc1ccccc1N1CC=C(c2cccc([N+](=O)[O-])c2)NC1=O
[9] CC(=O)NCCC(=O)Nc1cc(S(=O)(=O)Nc2ccc(Cl)cc2)ccc1N1CCCC1
[10] Nc1cnc(-c2ccccc2)nc1Cl
[11] CCOC(=O)C1CCN(c2ncnc3c2oc2ccccc23)CC1
[12] CCOC(=O)c1ccc(NC(=O)CSc2nnc(COc3ccccc3OC)n2C)cc1
Compound	7	8	9	10	11	12
UCH37 DUB inh	0.1	4.0	5.8	4.2	-0.2	3.5
Beta apoptosis	2.2	-4.0	/	-4.9	/	-1.1
Beta2AR agonist	1.9	-7.7	0.5	1.8	-6.4	-0.4
Bfl-1 A1 inh	0.2	0.7	-0.6	0.5	0.0	0.6
RanGTP-Impb inh	-2.4	3.7	-0.9	2.8	3.1	-0.5
LANA-H2A inh	/	3.3	0.4	0.2	-1.3	2.5
Calb FLC	-1.6	10.9	0.4	-10.5	-8.2	2.5
T cruzi repl	9.1	3.9	1.0	-20.1	-10.9	-8.3

[13] Cc1ccc(-c2csc3ncn(CC(=O)OC(C)C)c(=O)c23)cc1
[14] CCOc1ccc(C2C(C(=O)c3ccco3)=C(O)C(=O)N2CCN2CCOCC2)cc1OCC (stereo unspecified)
[15] Cc1ccccc1-c1cc(C(=O)N/N=C/c2cccnc2)c2ccccc2n1
[16] Cc1ccc(C2C3=C(CCCC3=O)Nc3c2c(C)nn3-c2ccccn2)o1 (stereo unspecified)
[17] C[C@H](CO)N1C[C@H](C)[C@@H](CN(C)C(=O)Nc2ccccc2)Oc2c(NS(=O)(=O)c3ccccc3)cccc2C1=O
[18] O=C(Cc1ccccc1)Nn1c(-c2ccccc2F)nc2ccccc2c1=O
Compound	13	14	15	16	17	18
UCH37 DUB inh	4.0	14.4	/	2.6	-0.4	-2.7
Beta apoptosis	-9.5	-0.9	1.8	2.1	1.7	/
Beta2AR agonist	-1.9	1.8	-0.9	/	-5.0	-1.2
Bfl-1 A1 inh	0.8	0.2	2.1	-0.5	0.4	0.0
RanGTP-Impb inh	0.8	0.5	/	0.6	/	0.2
LANA-H2A inh	-1.6	4.6	-5.7	5.5	-168.5	2.8
Calb FLC	-5.4	0.4	44.0	8.3	/	-22.3
T cruzi repl	3.4	-6.4	/	15.6	/	23.1

[19] CCOc1ccc(C(=O)CCC(=O)NNC(=O)c2ccncc2)cc1
[20] O=C(CNC(=O)OCc1ccccc1)NC1CCCCNC1=O (stereo unspecified)
[21] CN(C)S(=O)(=O)c1cccc(N=c2scc(-c3ccc4c(c3)NC(=O)CO4)n2CC2CCCO2)c1 (stereo unspecified)
[22] Brc1cnc(N2CCCC2)nc1N1CCCCC1
[23] Cc1cc(C)n2nc(C(=O)OCC(=O)c3c[nH]c4ccccc34)nc2n1
[24] Cn1c(CCN2CCOCC2)nc2cc(NC(=O)COc3ccccc3)ccc21
Compound	19	20	21	22	23	24
UCH37 DUB inh	3.1	2.2	3.1	-0.2	4.2	1.6
Beta apoptosis	/	-2.7	/	-2.3	0.8	0.6
Beta2AR agonist	2.2	5.3	3.4	5.6	-6.2	2.0
Bfl-1 A1 inh	0.7	-0.1	0.4	0.6	0.9	0.1
RanGTP-Impb inh	-3.1	-1.1	-3.2	0.9	?	1.3
LANA-H2A inh	-3.4	7.1	-0.8	2.8	-1.5	8.1
Calb FLC	-0.7	-11.8	1.9	-1.6	-3.4	7.5
T cruzi repl	-4.8	-10.1	3.9	18.8	-7.5	-15.0

[25] CCOc1ccc2nc(SC3CC(=O)N(c4ccc(OC)cc4OC)C3=O)sc2c1 (stereo unspecified)
[26] CC(CN1CCN(C/C=C/c2ccccc2)CC1)c1ccccc1 (stereo unspecified)
[27] COc1ccc(CN(CC(=O)NC2CCCC2)C(=O)c2csnn2)cc1
[28] CCN(CC)C(=O)c1cccc(C)c1
Compound	25	26	27	28
UCH37 DUB inh	5.0	3.9	2.6	3.3
Beta apoptosis	9.8	-8.6	-4.3	-8.7
Beta2AR agonist	1.1	1.9	-12.8	4.4
Bfl-1 A1 inh	0.5	-0.4	0.6	0.3
RanGTP-Impb inh	3.1	0.0	4.2	1.8
LANA-H2A inh	-2.2	10.6	8.3	-3.3
Calb FLC	-12.6	-81.5	-1.2	3.3
T cruzi repl	-11.6	28.1	-6.0	-16.3

Rewritten with values under each structure: part of the list above.
Screens in order – UCH37 DUB inh	Beta apoptosis	Beta2AR agonist	Bfl-1 A1 inh	RanGTP-Impb inh	LANA-H2A inh	Calb FLC	T cruzi repl
19	CCOc1ccc(C(=O)CCC(=O)NNC(=O)c2ccncc2)cc1
    3.1	/	2.2	0.7	-3.1	-3.4	-0.7	-4.8
20	O=C(CNC(=O)OCc1ccccc1)NC1CCCCNC1=O (stereo unspecified)
    2.2	-2.7	5.3	-0.1	-1.1	7.1	-11.8	-10.1
21	CN(C)S(=O)(=O)c1cccc(N=c2scc(-c3ccc4c(c3)NC(=O)CO4)n2CC2CCCO2)c1 (stereo unspecified)
    3.1	/	3.4	0.4	-3.2	-0.8	1.9	3.9
22	Brc1cnc(N2CCCC2)nc1N1CCCCC1
    -0.2	-2.3	5.6	0.6	0.9	2.8	-1.6	18.8
23	Cc1cc(C)n2nc(C(=O)OCC(=O)c3c[nH]c4ccccc34)nc2n1
    4.2	0.8	-6.2	0.9	?	-1.5	-3.4	-7.5
24	Cn1c(CCN2CCOCC2)nc2cc(NC(=O)COc3ccccc3)ccc21
    1.6	0.6	2.0	0.1	1.3	8.1	7.5	-15.0
25	CCOc1ccc2nc(SC3CC(=O)N(c4ccc(OC)cc4OC)C3=O)sc2c1 (stereo unspecified)
    5.0	9.8	1.1	0.5	3.1	-2.2	-12.6	-11.6
26	CC(CN1CCN(C/C=C/c2ccccc2)CC1)c1ccccc1 (stereo unspecified)
    3.9	-8.6	1.9	-0.4	0.0	10.6	-81.5	28.1
27	COc1ccc(CN(CC(=O)NC2CCCC2)C(=O)c2csnn2)cc1
    2.6	-4.3	-12.8	0.6	4.2	8.3	-1.2	-6.0
28	CCN(CC)C(=O)c1cccc(C)c1
    3.3	-8.7	4.4	0.3	1.8	-3.3	3.3	-16.3

Screening data deposited in PubChem BioAssay by several laboratories.
